Lassa entry inh: inhibitors of Lassa virus binding or cell entry | hit rate 1.2% among 300,000 | Lassa virus pseudotype entry inhibition, cell reporter; control for the full effect not named in the record | Potency, µM (series often up to 37.9 µM), inactives show at the highest dose activity change, negative = inhibition, actives largely listed as inhibitors | AID 540256; active means well fitted inhibition curve with a large enough effect; inconclusive means small, poorly fitted or top-dose-only effect, or effect the other way; inactive means flat fitted curve, though single readings scatter; tested in HEK293 cells; note: % is set by controls: 0 for no effect and ±100 for the full control effect; nearly all actives have a fitted effect of over 50% in size; luciferase read-out
Cruzain inh noDet: inhibitors of Trypanosoma cruzi cruzain without detergent; purified cruzain, Z-FR-AMC fluorescence, no detergent; Potency, µM, for inactives: max response, negative = inhibition, usual class: inhibitors; hit rate 2.3% among 200,000; AID 1476;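 note: plate controls were enzyme without inhibitor for no effect and buffer without enzyme for full effect; nearly all actives have a fitted effect of over 40% in size; top concentration of the series not given in the record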
Target sequence (P25779 123-467 limits assumed): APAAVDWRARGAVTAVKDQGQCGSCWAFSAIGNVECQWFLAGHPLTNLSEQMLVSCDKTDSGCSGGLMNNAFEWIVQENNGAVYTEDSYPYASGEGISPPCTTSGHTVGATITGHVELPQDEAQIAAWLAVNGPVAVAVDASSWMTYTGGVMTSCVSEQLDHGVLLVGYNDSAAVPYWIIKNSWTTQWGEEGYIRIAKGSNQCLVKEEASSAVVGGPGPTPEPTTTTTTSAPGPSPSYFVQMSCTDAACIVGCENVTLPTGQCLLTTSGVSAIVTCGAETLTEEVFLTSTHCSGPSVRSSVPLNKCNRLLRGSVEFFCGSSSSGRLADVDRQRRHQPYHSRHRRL
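Detergent-free condition (0.00005% Triton X-100) in acetate buffer pH 5.5 with DTT. 1.5 nM enzyme and compound were pre-mixed 15 min, then 2 uM Z-FR-AMC substrate added; reaction progress from fluorescence change between first and third reads (60 s).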
Cruzain inh Det: cruzain (T. cruzi) inhibition with detergent | hit rate 0.43% among 200,000 | purified cruzain, Z-FR-AMC fluorescence, 0.01% Triton | P25779 | Potency, µM, inactives show max response, negative = inhibition, most hits filed as inhibitors;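 note: plate controls were neutral wells for no effect and buffer without enzyme for full effect; nearly all actives have a fitted effect of over 40% in size; top concentration of the series not given in the record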
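Detergent-containing arm of a paired screen for aggregation-based inhibition: 0.01% Triton X-100 present. Cruzain at 1.5 nM cleaved 2 uM Z-FR-AMC at pH 5.5 with 5 mM DTT; AMC fluorescence gain over 60 s measured activity.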
NS1 inh: influenza NS1 inhibition. S. cerevisiae slowed by influenza A NS1, growth recovery by OD600. AID 2326. hit rate 0.4% among 270,000. Potency, µM (series often up to 46.1 µM), inactives show at the top dose activity, positive = more growth; active means well fitted rising curve with a large enough effect; inconclusive means small, poorly fitted or top-dose-only effect; inactive means no such curve, though single readings can be large or run the other way; note: nearly all actives have a fitted effect of over 50% in size
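Recovery from NS1-induced slow growth read by OD600 in budding yeast switched to galactose assay medium (pH 6.0, -URA) at 1:100 dilution. Compound 23 nl per well; the matching strain lacking NS1 serves as control.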
SARS PLpro yeast: blocks SARS-CoV papain-like protease in a yeast assay; S. cerevisiae expressing SARS-CoV PLpro, growth rescue; control for the full effect not named in the record; Potency, µM (top dose mostly 32.9 µM), inactives show at the top dose activity, positive = growth rescue; hit rate 0.19% among 330,000; AID 485353; active means well fitted rising curve with a large enough effect; inconclusive means small, poorly fitted or top-dose-only effect; inactive means no such curve, though single readings can be large or run the other way; note: 0% is about no effect; nearly all actives have a fitted effect of over 55% in size; growth read by luminescence after 48 h
RE007 growth inh: less growth of the S. pombe RE007 Vpr strain; hit rate 0.21% among 360,000; AID 651644; S. pombe RE007 Vpr strain, BacTiter-Glo ATP luminescence, 24 h; control for the full effect not named in the record; Potency, µM (top dose mostly 92.2 µM), for the others: top-dose activity change, negative = less growth; active = well fitted falling curve with a large enough effect; inconclusive = small, poorly fitted or top-dose-only effect; inactive = no such curve, though single readings can be large or run the other way;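 note: % is set by controls: 0 for no effect and ±100 for the full control effect; nearly all actives have a fitted effect of over 50% in size; the assay follows cell death caused by Vpr and the record does not say whether a fall means rescue or toxicity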
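Fission yeast strain RE007, carrying one chromosomally integrated HIV-1 vpr copy, was seeded at OD 0.01 in PMG+AL medium with 23 nL pinned compound. After 24 h at 30 °C and 99% humidity, viability was read by BacTiter-Glo luminescence.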
StopGo reporter: lowers the luciferase signal of an FMDV 2A StopGo reporter; human cells with a luciferase reporter of 2A StopGo recoding; control for the full effect not named in the record; Potency, µM (titrated, usually from 57.9 µM), for inactives: at the highest dose signal change, negative = less light; hit rate 1.2% among 410,000; AID 1159524; active = well fitted falling curve with a large enough effect; inconclusive = small, poorly fitted or top-dose-only effect; inactive = no such curve, though single readings can be large or run the other way; tested in HEK293T cells; note: % is set by controls: 0 for no effect and ±100 for the full control effect; nearly all actives have a fitted effect of over 45% in size; luciferase light after 4 h
MARV entry inh: blocks Marburg virus binding to or entry into cells. hit rate 1.8% among 300,000. Marburg virus pseudotyped entry inhibition, cell reporter; control for the full effect not named in the record; about a third of the inactives were read at about 46 µM. Potency, µM (top dose mostly 37.8 µM), without a hit: top-dose activity change, negative = inhibition, usual class: inhibitors; active = well fitted inhibition curve with a large enough effect; inconclusive = small, poorly fitted or top-dose-only effect, or effect the other way; inactive = flat fitted curve, though single readings scatter; tested in HEK293 cells; about a fifth of its hits are not listed in these tables; note: % is set by controls: 0 for no effect and ±100 for the full control effect; luciferase read-out
* = called active by the depositor; ? = inconclusive; / = not tested or not shown; & = joins results of further samples; [ ] = dose if it differs, or a comment. Unless noted, calls come from the whole dose curve; as a rule, active = well fitted curve in the direction sought with a large enough effect; inconclusive = small, poorly fitted or top-dose-only effect, or another doubt; inactive = no such curve, though single readings can be large; an effect the other way counts as inactive or inconclusive. Potency is the fitted concentration of half-maximal effect. Rows are unselected, and some 4.8% of all compounds hit somewhere here.

SMILES	Lassa entry inh	Cruzain inh noDet	Cruzain inh Det	NS1 inh	SARS PLpro yeast	RE007 growth inh	StopGo reporter	MARV entry inh
O=C(COc1ccc(Cl)cc1Cl)NCc1ccncc1	7.4%	-14.1%	-10.1%	-5.6%	14.1%	-23.3%	-11.0%	8.6%
Cn1nc(NC(=O)C2CCC2C(=O)O)c2c(F)cccc21 (stereo not drawn)	/	/	/	-0.8%	1.9%	-9.4%	7.2%	/
O=C(c1ccc(F)cc1Cl)N1CCN(S(=O)(=O)c2cccs2)CC1	0.2%	/	/	-7.2%	-3.0%	-4.3%	?	?
COc1cc2c(cc1OC)C(c1cc(OC)c(OC)c(OC)c1)C1(O)C(=O)OCC1(O)C2 (stereo not drawn)	2.4%[46.1 µM]	/	/	/	/	-10.7%	6.5%	13.4%[46.1 µM]
O=C(NCc1ccco1)c1ccc(Cl)c(S(=O)(=O)Nc2ccccc2)c1	-33.1%	/	/	3.9%	0.7%	-7.2%	32.9%[activator]	-11.3%[46.1 µM]
N#C/C(=C\c1ccc(-c2cccc(Cl)c2)o1)C(=O)Nc1cccc2cccnc12	6.7%	3.16µM*	-0.3%	13.0%	0.7%	19.8%	-3.8%	17.4%
CCOc1ccc(S(=O)(=O)N2CCN(C(=O)Cc3n[nH]c(=O)c4ccccc34)CC2)cc1	29.0%	/	/	/	0.4%	0.2%	-2.7%	10.7%
O=C(N/N=C/c1c(O)n(Cc2ccco2)c(=O)[nH]c1=O)c1ccccc1O	-8.0%	/	/	1.3%	?	-4.3%	11.3%	-2.3%[46.1 µM]
CCC1CCCCN1CC(=O)c1c(C)[nH]c2ccc(OC)cc12 (stereo not drawn)	20.6%	/	/	-3.4%	0.5%	-23.8%	6.1%	-6.3%
O=C(CN1C(=O)NC(c2ccccc2)(c2ccccc2)C1=O)NCC(=O)Nc1ccc(F)cc1	-2.4%	/	/	/	3.8%	0.2%	-14.6%	5.2%
Clc1ccccc1-c1ccc(/C=N/n2cnnc2)o1	-1.4%	-17.9%	-7.8%	-102.8%	-0.2%	-2.9%	1.7%	-3.3%
Cc1noc(C)c1S(=O)(=O)NCC(=O)O	4.5%	4.6%	2.7%	?	4.9%	6.1%	-10.4%	27.5%
COc1ccc(C(=O)N2c3ccccc3C=CC2C#N)cc1 (stereo not drawn)	?	-1.5%	-14.3%	-1.2%	0.0%	0.2%	0.0%	-1.7%
Cc1ccc(C(=O)Nc2ccc(O)cc2C(=O)O)cc1	-5.3%	-0.3%	-1.5%	-3.0%	3.8%	13.3%	1.1%	0.6%
CCOC(=O)c1cc(S(=O)(=O)N2CCc3ccccc32)cn1C	/	/	/	-9.6%	-1.2%	-12.4%	-2.8%	/
CCN1CCN(c2nc(Nc3cccc(F)c3)nc(N)c2[N+](=O)[O-])CC1	0.5%	/	/	-1.4%	0.7%	-4.9%	?	12.6µM*
COc1ccc(S(N)(=O)=O)cc1N(C)S(=O)(=O)c1ccccc1	6.5%	/	/	/	0.3%	0.9%	2.0%	19.9%[46.1 µM]
COc1ccc(C)cc1S(=O)(=O)N1CCN(C(=O)c2ncoc2-c2ccccc2C)CC1	-0.1%[46.1 µM]	/	/	?	2.2%	-2.8%	-8.8%	8.3%[46.1 µM]
Cc1ccc(-c2csc3ncnc(SCc4ccc(C(=O)O)cc4)c23)cc1	5.9%[46.1 µM]	/	/	10.3%	-0.8%	-9.6%	10.1%	6.1%[46.1 µM]
CC(C)S(=O)(=O)c1csc(C(=O)NN)c1Cl	4.6%	/	/	0.5%	0.0%	13.6%	-11.3%	-3.6%&-3.6%
N=C1c2ccccc2CN1NC(=O)c1ccccc1	?	4.3%	-5.1%	17.4%	-5.1%	-13.8%	24.8%	?
O=C(c1ccc(N2CCCS2(=O)=O)cc1)N1CCN(c2ccc(F)cc2)CC1	?	/	/	6.9%	-1.2%	0.7%	-16.6%	?
CCC(=O)Nc1sc2c(c1C(N)=O)CCN(C(C)=O)C2	/	-5.8%	-2.5%	-11.4%	3.1%	16.3%	-21.3%	/
O=C(NC(=S)Nc1ccc(CN2CCCCC2)cc1)c1ccco1	28.8%[46.1 µM]	/	/	5.9%	-0.4%	-0.8%	17.2%	-2.8%[46.1 µM]
CCN(CC)S(=O)(=O)c1cccc(C(=O)c2c(C)cc3ccccn23)c1	-0.4%	-9.5%	-5.8%	-6.2%	-51.5%	-5.8%	?	?
O=C(O)c1ccc(/C=N/Nc2cccc(C(F)(F)F)c2)cc1	/	/	/	/	-16.6%	11.6%	11.6%	-19.1%[46.1 µM]
Cc1ccc(Cl)c(OCC(=O)N2CCc3ccccc3C2)c1	/	/	/	-43.7%	-10.8%	-10.6%	0.0%	/
Cc1cc(OCC(=O)O/N=C(\N)c2ccccc2)ccc1Br	?	-12.5%	-9.8%	-18.8%	1.2%	-1.8%	33.5%[activator]	18.2%
COc1ccc(CCN(C)C(=O)CSc2nc3ccccc3c(=O)n2CC2CCCO2)cc1OC (stereo not drawn)	?	/	/	/	/	5.3%	-16.4%	14.6%
CCCN1Cc2cccc(C(=O)N3CCN(c4cc(Cl)ccc4C)CC3)c2C1=O	/	?	-2.6%	-75.7%	-18.6%	24.7%	-19.9%	/
Cc1cc(Oc2ccc(=O)n(C)n2)nc(SCC(N)=O)n1	/	/	/	3.1%	0.2%	16.0%	2.5%	/
COCCn1nnnc1C(c1ccccc1OC)N1CCN(c2ccccc2)CC1 (stereo not drawn)	-23.7%	10.0%	-0.3%	-5.6%	0.3%	5.7%	-6.1%	?
Cc1ccc(Cl)cc1NC(=O)c1cccc(OC(F)F)c1	14.6%	-5.1%	-1.5%	-5.8%	-10.8%	-21.7%	0.6%	-2.4%
O=c1c(C=Nc2ccc(Oc3ccccc3)cc2)c[nH]n1-c1cccc(Cl)n1	?	?	5.6%	0.2%	0.1%	10.9%	-25.4%	-17.9%
C=Cc1ccc(Cn2c(C)c(CNCCc3ccccc3C)c(C(=O)O)c2C)cc1	-7.6%[46.1 µM]	7.6%	-4.1%	/	/	/	-4.5%	?
O=c1cc(-c2cccc3ccccc23)[nH][nH]1	7.3%	-6.5%	-2.0%	?	?	0.9%	-24.9%	16.3%
CCC(CC)NC(=O)c1ccc2nc[nH]c2c1	4.0%	2.3%	7.5%	-12.3%	-2.1%	-11.9%	-23.2%	5.7%
O=C(C1CC1)N1CCC(c2nc(-c3ccc(S(=O)(=O)N4CCCC4)cc3)no2)CC1	-22.3%	?	-0.5%	-2.3%	-11.1%	-3.4%	?	-21.7%
CC1CCN(S(=O)(=O)c2ccc(NC(=O)[C@@H]3CCCN3C(=O)c3cccs3)cc2)CC1	9.2%	/	/	/	-0.6%	3.3%	5.6%	?
O=C(CSc1nnc(-c2ccccc2O)o1)Oc1ccc(Br)cc1	-0.2%	?	-4.9%	-9.4%	-3.5%	-3.0%	3.8%	4.0%
O=C(O)c1ccccc1NC(=O)c1ccccc1Nc1ccccc1	/	/	/	-4.2%	-11.8%	?	-24.4%	/
COc1ccc(CN2CCC(Oc3cc(C(=O)NC4CC4)ccc3OC)CC2)c(O)c1	/	/	/	5.2%	3.3%	-7.2%	-23.9%	/
CS(=O)(=O)N(CC(=O)N1CCCCCC1)c1cccc([N+](=O)[O-])c1	10.0%	/	/	2.2%	-2.8%	8.0%	-13.6%	1.6%
O=C(O)c1ccccc1-c1nc2cc(Cl)ccc2c(=O)n1O	5.1%[46.1 µM]	/	/	/	2.5%	3.0%	-5.6%	17.4%[46.1 µM]
COc1ccc(OC)c(NC(=O)c2cn(C)c(=O)c3cc(OC)c(OC)cc23)c1	-0.3%	?	-10.2%	-15.6%	-3.2%	-3.2%	?	23.5%[46.1 µM]
CCN(CC)S(=O)(=O)c1ccc2c(c1)c(=O)c(C(=O)N1CCN(c3ccc(F)cc3)CC1)cn2C	1.2%[46.1 µM]	6.2%	-0.7%	/	/	/	2.2%	0.2%[46.1 µM]
O=C1c2ccccc2C(=O)N1CN(C(=O)COc1ccccc1)c1ccccc1	-12.1%	3.1%	-0.1%	-6.0%	-0.1%	0.6%	/	?
CSc1nn(Cc2ccc(Br)cc2)c(N(C(C)=O)C(C)=O)c1S(=O)(=O)c1ccccc1	?	-6.5%	-5.7%	/	/	/	-25.6%	?
CN(C(=S)NC(=O)C1CC1)c1ccc(O)cc1	1.5%	/	/	/	-1.2%	-0.6%	3.1%	4.7%
CCOC(=O)c1oc2ccccc2c1CSc1nnnn1-c1ccc(C)cc1	?	-1.6%	-6.2%	-1.4%	-8.6%	0.4%	/	?
COc1ccc(CNCCc2ccc([N+](=O)[O-])cc2)c(OC)c1OC	/	/	/	-17.9%	-1.4%	-17.7%	-11.5%	/
COc1ccc(-c2nc(Cc3ccc(Cl)cc3)no2)cc1OC	3.98µM*	-15.7%	-6.6%	2.4%	-5.0%	1.6%	-6.1%	-22.0%
Nc1ccc(NC(=O)c2cccc(C(=O)Nc3ccc(N)cc3Cl)c2)c(Cl)c1	-20.5%	-7.7%	-5.6%	0.0%	-0.4%	1.2%	-14.6%&-22.6%	?
N#Cc1cc(N)ccc1-n1cccc1	/	/	/	0.7%	0.3%	-0.8%	-19.5%	/
COC(=O)c1ccc(N2OC3(C)C=CC2CC3)cc1 (stereo not drawn)	3.3%	-8.4%	-2.9%	-5.4%	-13.6%	3.0%	67.4%[activator]	?
